VDR inh: blocks the human vitamin D receptor; P11473; VDR-SRC2-3 peptide fluorescence polarization, 2 h; Potency, µM, without a hit: max response, negative = inhibition, usual class: inhibitors; actives 0.93% (n = 400,000); AID 504847; active = well fitted inhibition curve with a large enough effect; inconclusive = small, poorly fitted or top-dose-only effect, or another doubt; inactive = no such curve, though single readings can be large or run the other way; note: series mostly up to about 120 µM
Target sequence (P11473 whole entry, looked up): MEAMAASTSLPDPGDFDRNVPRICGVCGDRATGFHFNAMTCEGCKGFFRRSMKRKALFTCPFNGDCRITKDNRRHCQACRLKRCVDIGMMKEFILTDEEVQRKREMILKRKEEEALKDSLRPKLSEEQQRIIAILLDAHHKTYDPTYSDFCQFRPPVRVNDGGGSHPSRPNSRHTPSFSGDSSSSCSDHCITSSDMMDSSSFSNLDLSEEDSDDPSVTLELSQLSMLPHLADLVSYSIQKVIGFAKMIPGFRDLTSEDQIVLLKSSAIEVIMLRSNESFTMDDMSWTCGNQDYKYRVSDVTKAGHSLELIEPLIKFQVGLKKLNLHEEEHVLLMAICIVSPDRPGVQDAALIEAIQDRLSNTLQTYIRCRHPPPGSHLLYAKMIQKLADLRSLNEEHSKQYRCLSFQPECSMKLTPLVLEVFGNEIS
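Fluorescence polarization assay of small-molecule disruption of VDR binding to coregulator peptide SRC2-3. Compounds and controls pin-transferred, then read after 2 h incubation at ambient room temperature.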
An asterisk follows results filed as active; ? = inconclusive; & = joins results of further samples; [ ] = dose if it differs, or a comment. % is set by controls: 0 for no effect and ±100 for the full control effect; potency is the fitted concentration of half-maximal effect. A portion of the library. The share of hits here may be higher or lower than overall.

SMILES,VDR inh
COc1ccc(C(CC(=O)NCc2ccccc2)Sc2n[nH]c(-c3ccc(Cl)cc3)n2)cc1 (stereo unspecified),-3%
Cc1ccc2c(c1)NC(=O)C(CC(=O)NCCN(CC(C)C)CC(C)C)O2 (stereo unspecified),-15%
CC[C@]12c3[nH]c4ccc(OC)cc4c3CCN1C(=O)C(CC(=O)NCCCOC)C[C@@H]2C(=O)N1CCN(C(=O)c2ccco2)CC1 (stereo partly specified),11%
COc1ccc(-c2cn(-c3ccc(Cl)cc3)c3[n+]2CCCCC3)cc1,-1%
O=C1C=C(Nc2ccc(O)cc2)C(=O)c2ccccc21,0%
CCOC(=O)C1=C(CSc2nccn2C)NC(=O)NC1c1cc(C)ccc1C (stereo unspecified),10%
O=C(N/N=C/c1cccc(Br)c1)c1ccc(N2CCCC2=O)cc1,-5%
O=[n+]1c2c(n([O-])c3cc(F)c(N4CCCC4)cc31)CCCC2,-2%
COc1ccc(CN2C(=O)C(NC(=O)c3ccccc3OC)(C(F)(F)F)N=C2c2ccccc2)cc1 (stereo unspecified),-3%
CCOC(=O)N1CCN(C(=O)CSc2nnc(C3COc4ccccc4O3)o2)CC1 (stereo unspecified),-14%
Cc1oc(C(=O)O)cc1CSCc1ccoc1C(=O)O,-7%
C=CCN(CC=C)CC(=O)Nc1cccc(Oc2cnccn2)c1,-3%
CCc1nn(-c2ccccc2)c2nc(-c3cccc(OC)c3)c3cc(OC)c(OC)cc3c12,7%
COc1cccc(-n2ccnc2SCC(=O)N2CCCc3ccccc32)c1,0%
COc1cccc(NC(=O)c2oc3ccccc3c2NC(=O)c2ccc(C(F)(F)F)cc2)c1,-26%
COc1ccc(S(=O)(=O)N2CCC(C(N)=O)(N3CCCCC3)CC2)cc1,-8%
CCNC(=O)C1CCCN(c2ncnc3onc(C)c23)C1 (stereo unspecified),7%
CC(=O)c1ccccc1NC(=O)COC(=O)c1cc(C)oc1C,-8%
CCOc1ccc(CC2CCC(=O)NC2=O)cc1 (stereo unspecified),-18%
Cc1cccc(/C=C2/C(=O)/C(=C/c3ccccc3C)C3CCC2N3C)c1 (stereo unspecified),-10%
COc1ccccc1-n1cnc2sc(C)c(C)c2c1=O,14%
Cc1ccc(NC(=O)C2CCN(c3cnccn3)CC2)cc1,-14%
CC(C)(C)n1ncc2c(=O)n(Cc3cccc(Cn4cnc5c(cnn5C(C)(C)C)c4=O)c3F)cnc21,3%
O=C(CCCNC(=O)/C(=C/c1ccc(Br)cc1)NC(=O)c1ccccc1)OCc1ccccc1,13%
CCOC(=O)c1ccc(N2C(=O)c3[nH]nc(-c4ccc(C)cc4)c3C2c2ccc(O)cc2)cc1 (stereo unspecified),-13%
CCc1c(C)[nH]c2ccccc2c1=O,20%
CSc1nc2c(c(=O)[nH]1)C(c1ccc(C(F)(F)F)cc1)CC(=O)N2 (stereo unspecified),-6%
S=C(Nc1ccc(Br)cc1Cl)N1CCCC1,3%
COc1cccc(-n2nnnc2SCC(=O)Nc2ccc(C(C)=O)cc2)c1,?
Cc1oc(-c2cccc(Br)c2)nc1CSc1nc2ncccc2[nH]1,1%
Cc1ccc(NC(=O)COC(=O)Cc2ccsc2)cc1S(=O)(=O)N1CCOCC1,0%
COc1ccc([N+](=O)[O-])cc1NC(=O)Cc1noc2ccc(C)cc12,2%
CC(C)c1ccc(/C=C/C2=NNC(=O)CC2)cc1,?
O=C(Nc1ccc(OC(F)(F)C(F)F)c(NC(=O)c2ccc(F)cc2)c1)c1ccc(F)cc1,10%
CCN(C(=O)c1ccc(Cl)c(S(=O)(=O)Nc2c(C)n(C)n(-c3ccccc3)c2=O)c1)c1ccccc1,1%
Cc1cccc(NC(=O)C2CC(=O)OC23CCCCC3)c1 (stereo unspecified),-1%
COCC(C)n1c(SCC(=O)Nc2ccc3c(c2)OCCO3)nc2ccccc2c1=O (stereo unspecified),-15%
CCN(C(=O)COC(=O)C(c1ccccc1)c1ccccc1)c1c(N)n(Cc2ccccc2)c(=O)[nH]c1=O,-19%
COC(=O)c1sccc1NC(=O)CN1CCN(c2ccc(F)cc2)CC1,2%
COc1cccc(C(=O)COC(=O)CCC(=O)c2ccccc2)c1,5%
CCCOc1ccccc1-n1sc2c(c1=S)-c1cc(OC)cc3c1N(C(=O)C3=O)C2(C)C,?
COC(=O)[C@]1(C)N[C@H](CN(C)S(=O)(=O)c2ccc(OC(F)(F)F)cc2)[C@@H]2C(=O)N(Cc3ccccc3)C(=O)[C@@H]21,-10%
CC(=O)c1cccc(OCc2cc(C(=O)N(C)C(C)c3ccccn3)no2)c1 (stereo unspecified),7%
O=C(Nc1ccc(NC(=O)C2CC2)nc1)c1ccccn1,?
C=C(C)C1CC[C@]2(CO)CC[C@@]3(C)[C@H](CCC4[C@@]5(C)CCC(O)C(C)(C)C5CC[C@@]43C)C12 (stereo partly specified),0%
CCn1nc(C)c(CNC(=O)CC2C(=O)NCCN2CC(C)(C)C)c1C (stereo unspecified),5%
CN(C)CCN1C(=O)C(=O)/C(=C(/O)c2ccc(S(=O)(=O)N3CCOCC3)cc2)C1c1ccc(F)cc1 (stereo unspecified),-5%
CCOc1cccc(N2C(=O)CC(N(CCc3ccc(OC)c(OC)c3)C(=O)CC)C2=O)c1 (stereo unspecified),0%
COc1ccccc1NC(=O)c1c(-c2ccc(C)cc2)nnc2ccccc12,2%
Cc1ccc(CN(Cc2ccco2)C(=O)c2ccccc2Br)o1,1%
COc1ccc(C(C(=O)Nc2ccc(F)cc2)N(C(=O)Cn2nnc3ccccc32)C2CC2)cc1 (stereo unspecified),-5%
COc1ccn(C2CCCCO2)c(=O)n1 (stereo unspecified),17%
COc1ccc(C(=O)OCC(=O)Nc2cc(C)c(C)cc2[N+](=O)[O-])cc1,-11%
COc1ccc(-c2noc(CSc3nnc(C)n3-c3ccc(C)c(C)c3)n2)c(OC)c1,5%
COc1ccc(-c2[nH]ncc2/C=N/NC(=O)c2cc(Br)ccc2O)c(OC)c1,-17%
Cc1ccc(Cl)cc1N1CCN(Cc2nc3c(c(=O)[nH]c(=O)n3C)n2CCc2ccccc2)CC1,-8%

(list continues)
SMILES,VDR inh
COc1ccc(C(=O)Nc2nc3c(s2)CCc2cc(OC)ccc2-3)cc1,-13%
CSc1ccccc1COC(=O)Nc1ccccc1C,-2%
COC(=O)c1c(C)[nH]c(O)c1C=Nc1ccc(Oc2ccccc2)cc1,-3%
CC(C)C(c1nnnn1C1CCCCC1)N1CCc2ccccc21 (stereo unspecified),3%
O=C(/C=C/c1ccc(Cl)cc1Cl)N1CCN(c2ccc([N+](=O)[O-])c(N3CCOCC3)c2)CC1,4%
Cc1cc(C)cc(OCCn2nnc3ccccc32)c1,7%
CSc1nc2nccc(-c3ccc4c(c3)OCO4)n2n1,19%
O=C(c1cccs1)N1CCCN(c2ncnc3scc(-c4ccccc4)c23)CC1,-16%

Of the compounds above, these have a nitro group on carbon.
SMILES,VDR inh
COc1ccc([N+](=O)[O-])cc1NC(=O)Cc1noc2ccc(C)cc12,2%
COc1ccc(C(=O)OCC(=O)Nc2cc(C)c(C)cc2[N+](=O)[O-])cc1,-11%
O=C(/C=C/c1ccc(Cl)cc1Cl)N1CCN(c2ccc([N+](=O)[O-])c(N3CCOCC3)c2)CC1,4%

Continued:
SMILES,VDR inh
CS(=O)(=O)c1ccc2nc(NC(=O)CN3CCCCCC3)sc2c1,-8%
COC(=O)c1cc(Br)c(=O)n(-c2cc(C)on2)c1,4%
COc1cccc(CSc2nc3ccncc3n2CC(=O)Nc2ccc(OC)c(OC)c2OC)c1,12%
Brc1ccc(C2=N[C@@H](Cc3ccccc3)CO2)cc1,-7%
COc1cc2cc(C(=O)N/N=C/c3ccc(F)cc3)[nH]c2cc1OC,1%
CCOc1ccc(C2C3=C(CCCC3=O)Nc3nc(C(F)(F)F)nn32)cc1OC (stereo unspecified),-7%
O=C(Cc1ccccc1F)Nc1cc(S(=O)(=O)N2CCCC2)ccc1Cl,-7%
CN(C)c1ncnc2ccc(-c3ccccc3C(F)(F)F)cc12,?

Continued, overlapping the part above by 3 compounds.
SMILES,VDR inh
CCOc1ccc(C2C3=C(CCCC3=O)Nc3nc(C(F)(F)F)nn32)cc1OC (stereo unspecified),-7%
O=C(Cc1ccccc1F)Nc1cc(S(=O)(=O)N2CCCC2)ccc1Cl,-7%
CN(C)c1ncnc2ccc(-c3ccccc3C(F)(F)F)cc12,?
CCOc1ccc(-n2ccnc2SCC(=O)Nc2cc(C)ccc2C)cc1,-9%
CCc1ccc(-n2c(Cc3ccccc3)n[nH]c2=S)cc1,-18%
N#Cc1ccsc1NC(=O)CCS(=O)(=O)c1ccccc1,17%
CCC(=O)N1CCCc2cc(S(=O)(=O)N3CCN(c4ccccn4)CC3)ccc21,22%
Cc1ccc(-n2c(-c3ccco3)nc3nc4ccccc4nc32)cc1F,-7%
O=C1S/C(=C\c2cccs2)C(=O)N1c1ccc(O)cc1,6%
OCCN1CCN(C(=S)c2ccc(Cl)cc2)CC1,?
CC(C)(O)c1[nH]c2ccc(C#N)cc2c1C(C)(C)O,-3%
CCn1ncc(Br)c1C(=O)Nc1ccc(OC(F)(F)F)cc1,6%
Cc1c(NC(=S)NC(=O)COc2ccccc2)c(=O)n(-c2ccccc2)n1C,-10%
O=C(Cn1cnc2c(nc3n2CCCCC3)c1=O)Nc1cccc(C(F)(F)F)c1,4%&19%
CCOc1ccccc1N=C1NC(=O)CS1,8%
COCCNC(=O)c1ccc(N(C)S(=O)(=O)c2ccc(OC)c(OC)c2)cc1,-3%
CC1CCCCN1Cc1ccc(N)cc1 (stereo unspecified),8%
Cc1ccccc1C(=O)c1cccn1CC(=O)NCc1ccccc1Cl,-3%
COc1ccc2c3n([n+]([O-])c2c1)CCN=C3c1ccc(Cl)cc1,4%
Cc1ccc(NC(=O)COC(=O)c2ccc(CN3CCCC3=O)cc2)cc1C,8%
COC(=O)CCC(=O)Nc1ccc(S(=O)(=O)N2CCCCCC2)cc1,-15%
Cc1cc(C)c2[nH]c(=O)c(C(c3nnnn3CC3CCCO3)N3CCC(C)CC3)cc2c1 (stereo unspecified),-12%
CCC(OC(=O)c1nsc(Cl)c1Cl)C(=O)NC(C)(C)CC (stereo unspecified),-4%
O=C(Cc1cccs1)N1CCCC(c2nc(-c3ccc(S(=O)(=O)N4CCCC4)cc3)no2)C1 (stereo unspecified),10%
CCC(=O)N1CCc2cc(S(=O)(=O)CCC(=O)N3CCN(c4ccc(F)cc4)CC3)ccc21,5%
COc1ccccc1C(CNC(=O)C(C)Oc1ccc(Br)cc1)N1CCCC1 (stereo unspecified),1%
COc1ccc(-n2cc(C(=O)N(CCN(C)C)Cc3ccccc3)c3ccccc3c2=O)cc1,-7%
COC(=O)C1=C(NC(=O)c2ccc(C)c(C)c2)CCS1,-4%
Cn1c(=O)[nH]c(=O)c2c1nc(CN1CCN(c3ccc(F)cc3)CC1)n2CCCc1ccccc1,-12%
CC(=O)N1CCN(c2ccc(NCc3cccc(C)c3)cc2)CC1,?
CCOc1ccc(N(CC(=O)NCCCOC)S(C)(=O)=O)cc1,15%
Cc1ccc(NC(=O)C(=O)NCC(c2cccnc2)N2CCOCC2)cc1 (stereo unspecified),8%
CN(CC(=O)Nc1cccc(F)c1)C(=O)C1CC(=O)N(CCc2ccccc2)C1 (stereo unspecified),-10%
Cc1ccc(C)c(COC(=O)c2cc(S(=O)(=O)N3CCCCC3)ccc2N2CCOCC2)c1,-8%
O=C1OCCC1Sc1nnc(-c2ccc3c(c2)OCO3)n1-c1ccccc1 (stereo unspecified),-15%

An excerpt from above in order of the VDR inh value, ascending.
Molecule	VDR inh
O=C1OCCC1Sc1nnc(-c2ccc3c(c2)OCO3)n1-c1ccccc1 (stereo unspecified)	-15%
CN(CC(=O)Nc1cccc(F)c1)C(=O)C1CC(=O)N(CCc2ccccc2)C1 (stereo unspecified)	-10%
Cc1ccc(C)c(COC(=O)c2cc(S(=O)(=O)N3CCCCC3)ccc2N2CCOCC2)c1	-8%

Next part:
SMILES,VDR inh
COc1cc(-c2cc3n(C)c(C)c(CCC(=O)O)c(=O)n3n2)cc(OC)c1OC,-4%
Clc1ccc2nsnc2c1NC1=NCCN1,-4%&-2%&0%&7%&-8%&4%
O=c1oc2ccccc2c(Nc2ccc3ncccc3c2)c1[N+](=O)[O-],9%
CCN(CC)c1ncc(C#N)c(N)n1,67%[activator]
CS(=O)(=O)c1ccc(Cl)c(NC(=O)COC(=O)CCN2C(=O)C3CC=CCC3C2=O)c1 (stereo unspecified),19%
O=C1CC(c2ccc(F)cc2F)c2cc3c(cc2N1)OCO3 (stereo unspecified),-10%
O=C(NCc1ccccc1Cl)c1cc(-c2ccccc2)n[nH]1,12%
O=C(Cc1ccccc1F)Nc1ccc(S(=O)(=O)N2CCCCC2)cc1,12%
CC(=O)N1c2ccc(S(=O)(=O)N3CCC(C(=O)NCc4ccc(C)cc4)CC3)cc2CC1C (stereo unspecified),-8%
O=C(COc1ccccc1)NC1=NCCS1,4%
O=C(NCCc1ccc(Cl)cc1)C1(c2ccccc2)CC1,2%
